gsp antagonist: gsp mutant antagonism; gsp-mutant cells, cAMP HTRF, 30 min; control for the full effect not named in the record; Potency, µM (doses to about 76.9 µM), inactives show at the top dose activity change, negative = inhibition, hits mostly inhibitors; hit rate 0.4% among 340,000; AID 624288; active = falling curve of any shape with a large fitted effect; inconclusive = falling curve, mostly with a smaller effect; inactive = flat or rising curve; cell line not stated here;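 also: intracellular cAMP measured with PDE inhibitor Ro 20-1724 present during compound exposure; potency is read from the fitted curve at half-maximal effect; % is scaled to controls: 0 for no effect and ±100 for the full control effect; nearly all actives have a fitted effect of over 65% in size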
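Measurement of cellular cAMP by homogeneous time-resolved fluorescence following a 30 min compound exposure at 37C. The PDE inhibitor […] was present throughout; the assay buffer was DPBS with 0.05% BSA and 0.005% Tween 20.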
Sfp inh: inhibitors of Bacillus subtilis Sfp phosphopantetheinyl transferase | Q9F4F7 | Biochemical Sfp PPTase activity, qHTS | Potency, µM, for the others: max response, negative = inhibition, usual class: inhibitors | hit rate 3.5% among 310,000; active = well fitted inhibition curve with a large enough effect; inconclusive = small, poorly fitted or top-dose-only effect, or another doubt; inactive = no such curve, though single readings can be large or run the other way;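 also: the enzyme is Sfp with the accession as filed and its product quenches rhodamine fluorescence; potency is read from the fitted curve at half-maximal effect; 0% = enzyme reaction without inhibitor and -100% = no enzyme wells; top concentration of the series not given in the record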
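With Hepes-Na pH 7.6 buffer containing 10 mM MgCl2, Sfp (15 nM) modified BHQ-2-YbbR (12.5 uM) using rhodamine-CoA (5 uM). Two reads 30 minutes apart at 525/598 nm yielded each well's rate.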
D2 potentiator: potentiates the human D2 dopamine receptor allosterically. DiscoveRx D2 beta-arrestin cells, luminescence, 90 min; 100% = 57 uM dopamine signal. AID 624464. potentiation, % (no concentration beside the values). hit rate 0.23% among 360,000; active = potentiation of 50% or more; inconclusive = 30% to 50%; inactive = 30% or less;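 also: compound concentration not given in the record; tested on top of an EC20 dose of dopamine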
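D2 cells co-treated with compound plus 50 nM dopamine (EC20) for 90 min at 37 deg C to detect potentiation. Beta-arrestin recruitment was read as enzyme-fragment luminescence after 1 h at ambient temperature. Full response was set by 57 uM dopamine.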
gsp agonist: gsp mutant agonism; AID 624287; hit rate 0.13% among 340,000; Potency, µM (doses to about 76.9 µM), for the others: top-dose activation (cAMP increase), hits mostly activators; gsp mutant cells, cAMP HTRF, 30 min; control for the full effect not named in the record; active = well fitted activation curve with a large enough effect; inconclusive = small, poorly fitted or top-dose-only effect, or another doubt; inactive = no such curve, though single readings can be large or run the other way; cell line not stated here;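 also: phosphodiesterase inhibitor Ro 20-1724 added with compounds to block cAMP breakdown; potency is read from the fitted curve at half-maximal effect; nearly all actives have a fitted effect of over 60% in size; about a fifth of the inactives were tested at one dose only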
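Cells in DMEM/10% FBS with G418 were pretreated with compounds in DMSO plus […] (300 uM stock) for 30 min at 37C. cAMP was measured by HTRF (cAMP-d2 plus anti-cAMP antibody-K) after 30 min at room temperature.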
TRPV1 potentiator: enhances activation of the human vanilloid receptor TRPV1; Q8NER1; TRPV1-expressing cells, Fluo-8 calcium influx, capsaicin EC20 potentiation; host cell line not named in the record; control for the full effect not named in the record; potentiation, % at 8.33 µM; hit rate 0.02% among 320,000; AID 540277; active means potentiation above 80%; inconclusive means 30% to 80%; inactive means below 30%; also: 0% is about no effect
Target sequence (Q8NER1 whole entry, looked up): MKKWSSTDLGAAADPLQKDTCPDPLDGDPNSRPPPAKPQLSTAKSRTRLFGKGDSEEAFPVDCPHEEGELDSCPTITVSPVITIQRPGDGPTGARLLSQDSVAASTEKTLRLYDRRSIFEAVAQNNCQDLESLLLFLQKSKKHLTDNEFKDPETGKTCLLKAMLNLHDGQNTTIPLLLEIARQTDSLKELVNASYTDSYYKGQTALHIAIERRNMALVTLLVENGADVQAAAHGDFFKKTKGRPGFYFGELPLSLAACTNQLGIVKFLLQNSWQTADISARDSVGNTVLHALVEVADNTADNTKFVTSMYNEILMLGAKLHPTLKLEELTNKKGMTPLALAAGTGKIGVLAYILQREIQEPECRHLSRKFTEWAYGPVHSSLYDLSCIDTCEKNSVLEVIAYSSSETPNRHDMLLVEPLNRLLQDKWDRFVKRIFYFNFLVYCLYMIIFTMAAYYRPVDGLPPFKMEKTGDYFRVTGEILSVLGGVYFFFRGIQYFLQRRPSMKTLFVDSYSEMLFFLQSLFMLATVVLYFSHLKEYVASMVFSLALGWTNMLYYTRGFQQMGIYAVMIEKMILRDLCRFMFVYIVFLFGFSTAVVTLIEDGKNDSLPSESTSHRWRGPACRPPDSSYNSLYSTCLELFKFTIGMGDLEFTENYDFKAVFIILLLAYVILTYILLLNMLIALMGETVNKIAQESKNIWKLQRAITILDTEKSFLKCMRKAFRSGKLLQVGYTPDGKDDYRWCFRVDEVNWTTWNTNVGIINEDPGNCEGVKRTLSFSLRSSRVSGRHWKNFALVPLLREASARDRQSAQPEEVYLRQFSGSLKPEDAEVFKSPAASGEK
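Fluo-8 calcium influx in TRPV1-expressing cells, kinetic read (ex 480/em 520 nm). Compound added and read 3 min for agonist activity, followed by capsaicin at EC20 final and 2 min further read for enhancement.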
ClpP mod: qHTS Assay for Activators of ClpP; ATP-dependent Clp protease proteolytic subunit (Bacillus subtilis (strain 168)), P80244; purified B. subtilis ClpP, FRET peptide cleavage, 20 min; Potency, µM (highest dose often 57.5 µM), without a hit: at the highest dose activity change, negative = active; hit rate 1.9% among 340,000; AID 651965, 2013; active = well fitted falling curve with a large enough effect; inconclusive = small, poorly fitted or top-dose-only effect; inactive = no such curve, though single readings can be large or run the other way; also: potency is read from the fitted curve at half-maximal effect; the source files actives as falling curves though it sought activators and does not explain the sign; nearly all actives have a fitted effect of over 65% in size; many hits overshoot -100%
Target sequence (P80244 whole entry, looked up): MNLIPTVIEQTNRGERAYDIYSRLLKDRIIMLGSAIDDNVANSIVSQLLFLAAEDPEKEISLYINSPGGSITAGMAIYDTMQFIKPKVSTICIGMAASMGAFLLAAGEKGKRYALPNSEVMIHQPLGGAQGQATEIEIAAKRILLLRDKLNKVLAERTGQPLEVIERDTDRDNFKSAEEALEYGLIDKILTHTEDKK
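ClpP 10 microg/mL final, pH 8 Tris/KCl buffer with BSA, glycerol, Tween-20; compound pinned in; FRET-FV substrate; RT 20 min; Ex320/Em430; ΔFRET vs ADEP 5.8 microM, DMSO, no enzyme.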
Menin MLL FP FL: displaces fluorescein MLL peptide from human menin | Fluorescence polarization, fluorescein-MLL peptide displacement from menin | FP activity change, % at 61.4 µM | 290,000 tested, under 10 active; inconclusive = falling polarisation curve, or a change in total fluorescence; inactive = total fluorescence flat and polarisation flat or rising; no compound was filed as active; the % refers to the polarisation; negative = inhibition;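 also: % of control where 0% means no effect; inhibitors lower the polarisation; unlabelled MLL peptide was the positive control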
Numbers without * were called inactive; [ ] = dose if it differs, or a comment.

How did Cc1cccn2c(=O)c3cc(C(=O)NC4CCS(=O)(=O)C4)sc3nc12 (stereo not given) do in these assays?
gsp antagonist: 12%; Sfp inh: 16%; D2 potentiator: -5; gsp agonist: inconclusive; TRPV1 potentiator: -7; ClpP mod: 5.7%; Menin MLL FP FL: -1.4

How did CC(=O)c1ccc(NC(=O)CSc2nnc(NC(=O)C3CC3)s2)cc1 do in these assays?
gsp antagonist: 4%; Sfp inh: -2%; D2 potentiator: 21; gsp agonist: -39%; TRPV1 potentiator: -10; ClpP mod: 6.9%

How did Cc1cc(C)c(S(=O)(=O)N(C)CC(=O)N2CCCCC2)c(C)c1 do in these assays?
gsp antagonist: -3%; Sfp inh: 10%; D2 potentiator: -15; gsp agonist: 2%; TRPV1 potentiator: -7; ClpP mod: -2.0%; Menin MLL FP FL: -1.3

How did CC(Oc1ccc(Cl)cc1)C(=O)Nc1cccc(S(=O)(=O)N2CCCC2)c1 (stereo not given) do in these assays?
D2 potentiator: 2; gsp agonist: -5%; ClpP mod: 0.8%

How did Cc1ccc(C(=O)N/C(=C\c2ccc(-c3cccc([N+](=O)[O-])c3)o2)C(=O)NCCCN(C)C)cc1 do in these assays?
gsp antagonist: 0%; Sfp inh: -13%; D2 potentiator: -10; gsp agonist: -18%; TRPV1 potentiator: 14; Menin MLL FP FL: -3.8

What do the screens show for `Cc1cc(C(=O)OCC(=O)Nc2cc(C(F)(F)F)ccc2N2CCOCC2)c(C)o1`?
gsp antagonist: inconclusive; Sfp inh: -1%; D2 potentiator: -5; gsp agonist: -3%; TRPV1 potentiator: 0; ClpP mod: 1.2%; Menin MLL FP FL: 0.9

How did Cc1nnc(SCC2=C(C(=O)O)N3C(=O)C(NC(=O)Cc4ccccc4)C3SC2)s1 (stereo not given) do in these assays?
gsp antagonist: 2%; D2 potentiator: 0; gsp agonist: 25%; TRPV1 potentiator: 5; ClpP mod: 0.1%

What do the screens show for `Cc1ccc(S(=O)(=O)N2CCCC(C(=O)NCC(C)C)C2)cc1` (stereo not given)?
gsp antagonist: -1%; Sfp inh: 14%; D2 potentiator: -4; gsp agonist: inconclusive; TRPV1 potentiator: -18; Menin MLL FP FL: 1.2

What do the screens show for `S=c1[nH]nc(C2CCCCC2)n1/N=C/c1cccc(Cl)c1Cl`?
gsp antagonist: inconclusive; Sfp inh: -3%; D2 potentiator: -17; gsp agonist: -48%[inhibitor]; TRPV1 potentiator: -10; Menin MLL FP FL: 1.3

Results for CN(C)S(=O)(=O)c1ccc(Cl)c(NC(=O)CN2CCc3ccccc3C2)c1 ?
gsp antagonist: -19%; Sfp inh: 1%; D2 potentiator: 16; gsp agonist: -27%; TRPV1 potentiator: 7; Menin MLL FP FL: 4.0

How did CC1=C(C#N)C(=O)N(C2CCS(=O)(=O)C2)C(=O)/C1=C\c1ccco1 (stereo not given) do in these assays?
Sfp inh: 45µM*; TRPV1 potentiator: -12; Menin MLL FP FL: inconclusive

Results for CC(C)CN1CCN(Cc2cccc3cccnc23)CC1CCO (stereo not given) ?
gsp antagonist: 0%; Sfp inh: -5%; D2 potentiator: -35; gsp agonist: -12%; TRPV1 potentiator: -2; Menin MLL FP FL: -4.5

How did COc1cc(/C=C2\SC(=S)N(Nc3ncc(C(F)(F)F)cc3Cl)C2=O)cc(OC)c1OC do in these assays?
gsp antagonist: -17%; Sfp inh: -92%; D2 potentiator: -2; gsp agonist: 9%; TRPV1 potentiator: 16; ClpP mod: -1.1%; Menin MLL FP FL: 8.5

Results for COc1ccc(NC(=O)c2c(C(F)(F)F)nn(C)c2Cl)cc1 ?
gsp antagonist: 10%; Sfp inh: 14%; D2 potentiator: -10; gsp agonist: 10%[15.4 µM]; TRPV1 potentiator: 1; Menin MLL FP FL: -0.3

Results for CC1Cc2nc(SCC(=O)N3CCc4ccccc43)n(C)c(=O)c2S1 (stereo not given) ?
gsp antagonist: -2%; Sfp inh: 0%; D2 potentiator: 4; gsp agonist: -23%; TRPV1 potentiator: -3; ClpP mod: 0.4%; Menin MLL FP FL: -0.8

How did COCCn1c(N)c(N(Cc2ccccc2)C(=O)C2=COCCO2)c(=O)[nH]c1=O do in these assays?
gsp antagonist: 12%; Sfp inh: 3%; D2 potentiator: 8; gsp agonist: -46%[inhibitor]; TRPV1 potentiator: 1; ClpP mod: 0.6%

How did O=C(N/C(=C/c1cccc([N+](=O)[O-])c1)C(=O)N1CCCCC1)c1cccs1 do in these assays?
gsp antagonist: -10%; Sfp inh: 13%; D2 potentiator: -1; gsp agonist: 2%[15.4 µM]; TRPV1 potentiator: 15; ClpP mod: 0.8%; Menin MLL FP FL: 1.2

Results for Cn1c(=O)cc(OCCCC(=O)NCc2ccco2)c2ccccc21 ?
gsp antagonist: -3%; Sfp inh: -1%; D2 potentiator: 2; gsp agonist: 20%; TRPV1 potentiator: -10; ClpP mod: -6.1%; Menin MLL FP FL: 3.8

What do the screens show for `Nc1nc2c(s1)COc1ccccc1-2`?
gsp antagonist: 2%; Sfp inh: 16µM*; D2 potentiator: -5; gsp agonist: -44%[inhibitor]; TRPV1 potentiator: 5; ClpP mod: -0.8%; Menin MLL FP FL: 0.3

Results for Cc1cc(C)cc(NC(=O)CSc2nc(=O)n(CCN3CCOCC3)c3c2CCCC3)c1 ?
gsp antagonist: 9%; D2 potentiator: -11; gsp agonist: 36%[15.4 µM]; TRPV1 potentiator: 4

How did FC(F)(F)c1ccc(-n2ccnc2)nc1 do in these assays?
gsp antagonist: 20%; Sfp inh: 15%; D2 potentiator: 6; gsp agonist: 3%; TRPV1 potentiator: 7; ClpP mod: -5.5%; Menin MLL FP FL: 0.6

How did COc1ccccc1C(=O)NC(=O)COC(=O)CCNS(=O)(=O)c1ccccc1 do in these assays?
gsp antagonist: 2%; D2 potentiator: -13; gsp agonist: -9%[15.4 µM]; TRPV1 potentiator: -2; ClpP mod: 1.3%

How did COc1ccccc1N(C)C(=O)c1cc(S(=O)(=O)N2CCc3ccccc32)cn1C do in these assays?
gsp antagonist: -9%; Sfp inh: 8%; D2 potentiator: -7; gsp agonist: -38%[inhibitor]; TRPV1 potentiator: 15; ClpP mod: -1.4%; Menin MLL FP FL: -0.8

How did COc1ccc(/C=C/C(=O)Nc2nc(C)c(C(=O)N(C)C)s2)cc1OC do in these assays?
gsp antagonist: 12%; Sfp inh: 13%; D2 potentiator: -4; gsp agonist: 16%; TRPV1 potentiator: 1; ClpP mod: -13%; Menin MLL FP FL: 4.7

How did Cc1ccc(C(=O)c2cc3ccccc3o2)cc1C do in these assays?
gsp antagonist: -6%; Sfp inh: -10%; D2 potentiator: -24; gsp agonist: inconclusive; TRPV1 potentiator: -25; ClpP mod: -8.0%; Menin MLL FP FL: -0.2

What do the screens show for `Cc1nc2c(-c3ccc(F)cc3)c(C)[nH]n2c(=O)c1Cl`?
gsp antagonist: -10%; Sfp inh: 14%; D2 potentiator: -5; gsp agonist: inconclusive; TRPV1 potentiator: 5; ClpP mod: 3.2%; Menin MLL FP FL: -0.4

How did Cc1[nH]n(-c2c(Cl)cc(Cl)cc2Cl)c(=O)c1C=Nc1ccc(S(=O)(=O)N2CCOCC2)cc1 do in these assays?
gsp antagonist: -12%; Sfp inh: 25%; D2 potentiator: -6; gsp agonist: 17%; TRPV1 potentiator: 1; ClpP mod: -0.2%; Menin MLL FP FL: 3.4

Results for Cc1cc(=O)c2cc(Br)ccc2[nH]1 ?
gsp antagonist: -2%; Sfp inh: 14%; D2 potentiator: -16; gsp agonist: -11%; TRPV1 potentiator: 0; ClpP mod: -0.2%; Menin MLL FP FL: 1.0

What do the screens show for `CCOC(=O)Cc1csc(NC(=O)CSc2nnc(-c3cccnc3)n2Cc2ccco2)n1`?
gsp antagonist: 12%; Sfp inh: -19%; D2 potentiator: 5; gsp agonist: -26%; TRPV1 potentiator: -4; ClpP mod: -2.3%; Menin MLL FP FL: 2.3

Results for CC1CCN(S(=O)(=O)c2ccc(C(=O)Nc3nnc(-c4ccco4)o3)cc2)CC1 ?
gsp antagonist: -10%; Sfp inh: -3%; D2 potentiator: -11; gsp agonist: -5%[15.4 µM]; TRPV1 potentiator: -3; ClpP mod: -3.2%; Menin MLL FP FL: 0.2

Compounds from the list above containing a nitro group on carbon (2):
How did Cc1ccc(C(=O)N/C(=C\c2ccc(-c3cccc([N+](=O)[O-])c3)o2)C(=O)NCCCN(C)C)cc1 do in these assays?
gsp antagonist: 0%; Sfp inh: -13%; D2 potentiator: -10; gsp agonist: -18%; TRPV1 potentiator: 14; Menin MLL FP FL: -3.8

How did O=C(N/C(=C/c1cccc([N+](=O)[O-])c1)C(=O)N1CCCCC1)c1cccs1 do in these assays?
gsp antagonist: -10%; Sfp inh: 13%; D2 potentiator: -1; gsp agonist: 2%[15.4 µM]; TRPV1 potentiator: 15; ClpP mod: 0.8%; Menin MLL FP FL: 1.2

The listing continues:
How did O=C(NN=Cc1ccccc1)C(Oc1ccccc1)c1ccccc1 (stereo not given) do in these assays?
gsp antagonist: -10%; D2 potentiator: -26; gsp agonist: 16%; ClpP mod: -2.8%

Results for O=C(CC(=O)N/N=C/c1ccc(C(=O)O)cc1)NCCc1ccccc1 ?
gsp antagonist: 5%; Sfp inh: 20%; D2 potentiator: 6; gsp agonist: -11%; TRPV1 potentiator: inconclusive; ClpP mod: 2.3%; Menin MLL FP FL: -6.5

What do the screens show for `O=C(Nc1ccc(Cl)c(S(=O)(=O)N2CCCCC2)c1)c1cnccn1`?
gsp antagonist: -8%; D2 potentiator: 1; gsp agonist: inconclusive; TRPV1 potentiator: 3; ClpP mod: 1.0%

What do the screens show for `Cn1c(=O)c2c(nc(NCCCN3CCOCC3)n2Cc2cccc(Cl)c2)n(C)c1=O`?
gsp antagonist: -4%; Sfp inh: 8%; D2 potentiator: -21; gsp agonist: inconclusive; TRPV1 potentiator: 4; ClpP mod: 0.1%; Menin MLL FP FL: 5.6
